Vaccinia mCherry = inhibitors of vaccinia virus infection (mCherry reporter signal). Vaccinia virus mCherry reporter infection, fluorescence; about a quarter of the inactives have no number. Potency, µM (titrated, usually from 36.5 µM), without a hit: at the top dose activity change, negative = inhibition, actives largely listed as inhibitors. 310,000 compounds, 0.63% hits; active = well fitted inhibition curve with a large enough effect; inconclusive = small, poorly fitted or top-dose-only effect; inactive = no such curve, though single readings can be large or run the other way; tested in A549 cells; further: nearly all actives have a fitted effect of over 35% in size; inactives centre near -10
VACV Venus inh = inhibitors of vaccinia virus (Venus reporter); Vaccinia virus Venus reporter expression, fluorescence; Potency, µM (top dose mostly 36.5 µM), without a hit: at the top dose activity change, negative = inhibition, hits mostly inhibitors; 330,000 compounds, 0.46% hits; AID 720580; active means well fitted inhibition curve with a large enough effect; inconclusive means small, poorly fitted or top-dose-only effect; inactive means no such curve, though single readings can be large or run the other way; tested in A549 cells; further: nearly all actives have a fitted effect of over 30% in size; inactives centre near -10
An asterisk follows results filed as active; i = inactive; ? = inconclusive; . = no result given; & = joins results of further samples; [ ] = another dose, or the depositor's remark. On the % scale 0 is the no-effect control and ±100 the full control effect; potency means the concentration at half of the fitted maximal effect.

SMILES | Vaccinia mCherry | VACV Venus inh
Cc1ccc(/C=C/C(=O)c2ccccc(=O)c2O)cc1C | ? | -23.2%
COc1ccc(C(=O)c2c[nH]cc2-c2ccccc2)cc1 | -16.5% | -8.8%
CCOC(=O)CSc1nc2sc(C)c(C)c2c(=O)[nH]1 | -17.2% | -15.7%
CCN(c1ccccc1)S(=O)(=O)c1ccc2[nH]cc(C(=O)NCCOC)c(=O)c2c1 | . | -23.1%
CCOP(=O)(OCC)C(NC(=O)Nc1c(C)cc(C)cc1C)c1ccccc1 (stereo not given) | i | 1.6%
Cc1n[nH]c(=S)n1-c1cccc(Cl)c1 | -15.0% | -4.6%
CCOc1ccc2nc(SCC(=O)Nc3cc(C)on3)c(C)cc2c1 | 12.2% | -6.5%
O=C(NNc1nc(-c2ccccc2)c2cc(Br)ccc2n1)c1ccc(S(=O)(=O)N2CCOCC2)cc1 | -5.9% | -22.0%
COCC(=O)Nc1cc(C(=O)Nc2ccccc2C)ccc1Cl | -23.9% | -17.0%
COC(=O)c1cccc(NC(=O)c2cccc(-n3cnnn3)c2)c1 | i | -22.8%
O=C(COc1ccc2ccccc2c1)NNC(=O)c1ccc([N+](=O)[O-])cc1 | -9.9% | -2.7%
CCOC(=O)C1CCN(C(=O)COC(=O)CN(C)S(=O)(=O)c2ccc(NC(C)=O)cc2)CC1 | i | -3.4%
CSc1nc(N(C)NC(=O)c2cccc(C)c2)c2ccccc2n1 | ? | ?
CCC1=C(OC(=O)N(CC)CC)N2C(=O)OC(=NCC3CC3)[C@]2(C)[C@H]2C1=CC[C@H]1C(=O)N(C)C(=O)[C@H]12 | i | -6.0%
C=C1C[C@@]23CCC4[C@@](C)(CCC[C@@]4(C)C(=O)OC)C2CC[C@]1(OC(C)=O)C3 (stereo not given in full) | i | -8.0%
COC(=O)Cn1c(Cc2ccccc2)nc2ccccc21 | -5.8% | -4.2%
Cc1ccc(Cl)cc1N1CCN(C(=O)c2cnn(C)c2C2CCN(C(=O)OC(C)(C)C)CC2)CC1 | -23.2% | -21.6%
Cc1ccc(NS(=O)(=O)c2ccc(-c3cc(C)no3)cc2)c(C)c1 | -23.1% | -27.6%
Cc1ncc(N=Nc2ccc(F)cc2)c(-c2ccc(Cl)cc2)n1 | . | -7.4%
O=C(Nc1cccnc1)C1Cc2c(-c3ccco3)ccnc2O1 (stereo not given) | 31.0%[activator] | 8.4%
CCOc1ccc(CCNC(=O)CCCc2nnc3n(CC)c(=O)c4sccc4n23)cc1 | -18.2% | -16.5%
COc1ccc(C(=O)Nc2sc(C)c(C)c2CN2CCOCC2)cc1 | -23.8% | -7.7%
CCOCCCNc1nc2nc3ccc(C)cn3c(=O)c2cc1C(=O)NCC1CCCO1 (stereo not given) | -4.2% | -4.7%
Cc1cccc(OCc2nn[nH]n2)c1C | -20.5% | -14.4%
CCc1nnc2c(Nc3cccc(F)c3)nc3ccc(C(=O)c4ccccc4)cc3n12 | -12.5% | -6.3%

Brought forward from above: 2 compounds; new compounds follow.
SMILES | Vaccinia mCherry | VACV Venus inh
Cc1cccc(OCc2nn[nH]n2)c1C | -20.5% | -14.4%
CCc1nnc2c(Nc3cccc(F)c3)nc3ccc(C(=O)c4ccccc4)cc3n12 | -12.5% | -6.3%
CSCCC(C(=O)NC(C)(C)C)n1c(-c2ccc(C)cc2)nc2ccccc21 (stereo not given) | 5.7% | -2.5%
COc1ccc(C(=O)N2CCN(c3cccc(C)c3C)CC2)cc1S(=O)(=O)NC1CC1 | ? | ?
CC(=O)NNc1ncnc2c1cnn2-c1ccccc1 | -6.7%&-10.9% | -9.4%&5.3%
Cc1nc2ccc(NC(=O)c3cc([N+](=O)[O-])cc([N+](=O)[O-])c3Cl)cc2s1 | -6.2% | -15.6%
Cc1ccc(C2(C)NC(=O)N(CC(=O)NCCC3=CCCCC3)C2=O)cc1 (stereo not given) | -8.0% | -5.0%
O=c1cc(Nc2ccc3c(c2)OCCO3)[nH]c(=O)n1C1CCCCC1 | ? | -27.3%
CC(C)(C)c1ccc(C(=O)C2CCCN(C(=O)CN3CCCC3=O)C2)cc1 (stereo not given) | -9.5% | -26.5%
CCOc1ccc(NC(=O)N(C(C)C)C2CCN(C(C)=O)CC2)cc1 | -0.3% | -6.6%
CC(=O)Nc1cccc(-c2nnc(SCc3ccccc3C#N)n2C)c1 | -9.2% | -15.2%
CCC(Sc1ccccn1)C(=O)Nc1nnc(C)s1 (stereo not given) | i | -10.2%
OC(COCC(F)(F)C(F)(F)C(F)(F)C(F)F)Cn1c2ccccc2c2ccccc21 (stereo not given) | ? | ?
CCOc1ccc(-c2cc3cc(OC)c(OC)cc3c(C)n2)cc1 | 5.1% | -0.6%
COc1cccc(/C(O)=C/C(=O)C(=O)Nc2ccc(S(=O)(=O)NC(C)=O)cc2)c1 | -13.3% | -8.6%
CC1CCN(C(=O)c2cc3ccccc3c(=O)o2)CC1 | i | -6.6%
COc1cccc(CN(C)Cc2nc(Cc3ccccc3Cl)no2)c1 | -6.6% | -5.7%
Cc1[nH]c2ccccc2c1SCC(=O)NC1CCCCC1 | -2.1% | -9.5%
CCOc1cc(/C=N/NC(=O)CSc2nnc(C)s2)ccc1OCc1ccccc1Cl | ? | -19.2%
COc1ccc(S(=O)(=O)Cc2ccc(C(=O)N3CCc4ccccc4C3)o2)cc1 | 12.1% | 0.2%
COc1ccc(NC(=O)Cn2nc3c(cc2=O)CCCC3)cc1Cl | -10.3% | -5.2%
COc1ccc(CCNC(=O)c2ccc(Cn3c(=O)c4cccn4c4cccnc43)cc2)cc1OC | -13.3% | -14.4%
COc1cccc(CN(C)CC(=O)Nc2cccc(S(N)(=O)=O)c2)c1OC | -24.6% | -4.7%
CCN(C(=O)COC(=O)C(O)(c1ccccc1)c1ccccc1)c1c(N)n(Cc2ccccc2)c(=O)[nH]c1=O | -21.3% | -7.2%
CCSc1nnc(NC(=O)c2ccccc2C)s1 | -13.9% | 0.7%
COC(=O)c1ccccc1NC(=O)CSc1nnc(CNS(=O)(=O)c2ccc(C)cc2)n1C | i | -3.7%
COc1ccc(Cc2nnc(NC(=O)Cc3cccs3)s2)cc1OC | -14.1% | -15.0%

Quoted at random: 3 compounds from above.
SMILES | Vaccinia mCherry | VACV Venus inh
Cc1n[nH]c(=S)n1-c1cccc(Cl)c1 | -15.0% | -4.6%
O=c1cc(Nc2ccc3c(c2)OCCO3)[nH]c(=O)n1C1CCCCC1 | ? | -27.3%
Cc1[nH]c2ccccc2c1SCC(=O)NC1CCCCC1 | -2.1% | -9.5%

Next section
molecule	Vaccinia mCherry	VACV Venus inh
O=C(O)c1ccccc1C(=O)c1ccc(Oc2ccccc2)cc1	-3.3%	-4.5%
CCCCOc1ccc(/C=C/C(=O)Nc2ccc(C(N)=O)cc2)cc1	5.4%	-7.4%
Cc1nonc1C(=O)N/N=C/c1ccc(O)c(O)c1	-10.6%	-6.1%
N#Cc1ncc(-c2ccc3c(c2)OCCOCCOCCOCCO3)nc1C#N	i	-15.1%
S=c1[nH]cc(-c2ccccc2)n1-c1ccccc1Cl	-22.4%	-13.7%
O=C(CSc1nnc(CNC(=O)c2ccccc2)o1)Nc1ccc2c(c1)OCCO2	i	-4.3%
COC(=O)c1ccc(S(=O)(=O)NC(C)(C)C)n1C	-13.6%	-11.2%
O=S(=O)(c1ccc(F)cc1)N(Cc1nc(-c2ccc(Cl)cc2)no1)C1CCCCC1	-13.7%	-14.1%
c1ccc(C(c2ccccc2)N2CCN(c3ccc4ccccc4n3)CC2)cc1	.	-13.5%
CCCC(=O)Nc1ccc(NC(=O)c2cccc(OC)c2)cn1	-6.7%	-5.2%
COC(=O)C1=C(C)N(CC(C)C)C(=O)/C1=C\c1cccs1	-13.6%[1.46 µM]	-14.5%
CC(=O)Nc1nc(C2COc3ccccc3O2)cs1 (stereo not given)	-10.2%	-9.5%

Carrying on:
molecule	Vaccinia mCherry	VACV Venus inh
CCNC(=S)NNC(=O)CCc1nc2cc(Cl)ccc2n(Cc2ccccc2)c1=O	-0.2%	-0.1%
CCC(C)(C)n1nnnc1C(c1ccc2ncccc2c1)N1CCN(c2ccc(O)cc2)CC1 (stereo not given)	-10.1%	4.9%
CCCOc1ccc2oc(=O)c3c(c2c1)CCCN3C(=O)CN1CCN(c2ncccn2)CC1	-9.2%	-5.8%
CC(=O)Nc1ccc2nc(-c3cccn3C)[nH]c2c1	-13.5%	-12.2%
CCCCOC(=O)c1ccc(Nc2nc3ccccc3c3nnc(C)n23)cc1	-5.6%	-12.7%
CCOC(=O)C1=C(C)NC(=O)NC1c1ccccc1OCc1c(F)cccc1Cl (stereo not given)	?	-29.6%
COc1ccc(CNC(=O)c2onc(C)c2Cl)cc1	-6.9%	-6.2%
Cc1ccc(SCc2nc(-c3cccnc3)no2)cc1	.	-7.9%
Cc1ccc(-c2onc3ccc(Br)cc23)cc1	-5.3%	-7.7%
COc1ccc(S(=O)(=O)N2CCC(C(=O)Nc3ccc(S(=O)(=O)N4CCCC4)cc3)CC2)cc1OC	-11.6%	0.6%
O=C(CSc1nnc2ncccn12)Nc1cccc2ccccc12	-15.8%	-15.7%
CN(C)CCNC(=O)c1cccc(-c2cnc3c(NC=O)cc(-c4cccc(C(F)(F)F)c4)cn23)c1	-18.7%	?

Next results follow.
molecule	Vaccinia mCherry	VACV Venus inh
Cc1ccc(-n2c(SCC(=O)N3Cc4ccccc4CC3C(=O)O)nnc2-c2cccnc2)c(C)c1 (stereo not given)	i	-14.8%
S=C1NCCc2ccccc2C1c1ccccc1Cl (stereo not given)	-21.1%	-13.7%
O=C(NCc1ccc(Cl)c(Cl)c1)c1ccc2c(c1)OCO2	i	-0.2%
CC(=O)Nc1ccc(S(=O)(=O)NCCC(=O)OCc2nnc(-c3ccccc3)o2)cc1	-12.7%	-4.5%
O=C(CCN1C(=O)c2ccccc2C1=O)NCc1ccco1	i	-2.3%
CCC(C)C(NC(=O)C(C)NC(=O)CNC(=O)OC(C)(C)C)C(N)=O (stereo not given)	-8.7%	-6.6%
Cc1cc(Cl)ccc1OCCCC(=O)NCc1cccs1	-2.0%	-27.1%
CC(C)(C)[C@@H]1C=C(C(N)=O)O[C@H](OCc2ccc(CO)cc2)C1	-3.5%	-15.5%
Cc1ccc(NS(=O)(=O)c2cc(C(=O)N(C)C)ccc2C)cc1C	3.7%	-1.7%
O=C(CCSCc1ccc(Cl)cc1)NCc1ccco1	-11.5%	2.4%
O=C(Cc1ccc([N+](=O)[O-])cc1)N1CCc2ccccc2C1	i	-3.8%
O=C(CSc1nnc2ccccn12)NCCc1ccc(F)cc1	-1.1%	-14.1%

Following part
molecule	Vaccinia mCherry	VACV Venus inh
CC(C)COc1ccc(C(=O)Nc2nnc(S(=O)(=O)N(C)Cc3ccco3)s2)cc1	-10.5%	-14.7%
CCOC(=O)C1(C)NC(c2cccs2)C2C(=O)N(c3ccc(OC)cc3)C(=O)C21 (stereo not given)	0.9%	-4.7%
O=C(c1ccc(Cl)cc1)N1CCC2CC1c1cc(-c3ccccc3)ccc12 (stereo not given)	i	-18.6%
COCc1cc(C)nc2sc(C(=O)Nc3ccccc3O)c(N)c12	-23.4%	-17.2%
Cc1cnc(CN(C)C(=O)C2CCC(=O)N(CCc3ccc(Cl)cc3)C2)[nH]1 (stereo not given)	-13.1%	-2.6%
CC(=O)NCCCCCCNC(C)=O	i	-12.6%
CCc1noc(C)c1C(=O)N(CCOC)c1c(N)n(CC(C)C)c(=O)[nH]c1=O	i	-6.5%
O=C(c1ccccc1)N1CCOC(O)(c2ccccc2)C1c1ccccc1 (stereo not given)	-23.9%	-10.2%
NCCCC[C@H]1CNC(=O)C(=O)N1CCc1cc(C(F)(F)F)cc(C(F)(F)F)c1	-10.0%	-4.2%
C/C(=N\NC(=O)c1ccncc1)c1c(O)[nH]c(=O)[nH]c1=O	i	-8.1%
COC(=O)c1cccc(-n2nnnc2SCC(=O)Nc2cc(C)on2)c1	.	-6.9%
CC1(C)CC(=O)C(Sc2nnc(-c3ccc(NS(C)(=O)=O)cc3)n2Cc2ccco2)C(=O)C1	i	-14.1%

Other entries follow.
molecule	Vaccinia mCherry	VACV Venus inh
Nc1nc(F)nc2c1ncn2[C@@H]1O[C@H](CO)[C@@H](O)[C@@H]1O	3.16µM*	7.08µM*
CNC(=O)NC(=O)C(c1ccccc1)N(C)CC1COc2ccccc2O1 (stereo not given)	-2.6%	-15.0%
COc1ccc(Cc2cnc(N)nc2N)cc1OC	-8.7%	-11.8%
CC(=Nc1ccc(C)cc1)c1sc2ccccc2c1O	-8.7%	-17.3%
Cc1cc(NC(=O)CN2CCC(C)CC2)no1	i	-13.4%
Oc1ccc(Nc2ccnc3cc(Cl)ccc23)cc1	?	-2.2%
Cc1cc(C)c(OCC(=O)OCC(=O)NCC2CCCCC2)c(C)c1	-0.8%	-6.1%
Cc1ccc(N(CC(=O)NC2CCCCC2)C(=O)c2ccc(C)s2)cc1	-4.7%	-3.0%
CN(C)/C=C/C(=O)c1ccc([N+](=O)[O-])c(CS(=O)(=O)c2ccccc2)c1	i	-10.9%
O=C(CSc1ccccc1)N1CCN(S(=O)(=O)c2ccccc2)CC1	-13.4%	-6.3%
